HIV Env fusion = blocks HIV Env-driven cell-cell fusion; HeLa-JRFL Env/CEM21 cell fusion, luciferase; inhibition, % at 12.3 µM; hit rate 1.1% among 360,000; AID 651610;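 active = mean replicate inhibition score of at least 50 and every replicate individually at or above 50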;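 note: 0% = plate neutral controls and 100% = maraviroc near 300 nM; one replicate is shown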
eIF4H inh = inhibitors of RNA binding by human eIF4H; Q15056; inhibition, % at 35 µM; eIF4H fluorescence polarization binding assay; hit rate 0.94% among 290,000;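 active = 50% or more with normal probe brightness, or confirmed in later tests; about a fifth of its hits are not listed in these tables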;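 note: calls also rest on retests at 20 µM and on dose response follow-up; 0% = protein and probe with vehicle and 100% = probe without protein; strong numbers were not always called active; many hits fall short of the cut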
Rce1 inh = yeast Ras-converting enzyme inhibition; yeast membranes, quenched prenylated peptide cleavage fluorescence; AID 2563; hit rate 0.27% among 290,000; calls only; Q03530;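 active = fall in fluorescence gain of 50% or more versus controls, with final raw signal at or below 3038400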;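 note: plate controls were neutral control wells for no effect and wells lacking membranes for full effect; tested at 10 µM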
Target sequence (Q03530 whole entry, looked up): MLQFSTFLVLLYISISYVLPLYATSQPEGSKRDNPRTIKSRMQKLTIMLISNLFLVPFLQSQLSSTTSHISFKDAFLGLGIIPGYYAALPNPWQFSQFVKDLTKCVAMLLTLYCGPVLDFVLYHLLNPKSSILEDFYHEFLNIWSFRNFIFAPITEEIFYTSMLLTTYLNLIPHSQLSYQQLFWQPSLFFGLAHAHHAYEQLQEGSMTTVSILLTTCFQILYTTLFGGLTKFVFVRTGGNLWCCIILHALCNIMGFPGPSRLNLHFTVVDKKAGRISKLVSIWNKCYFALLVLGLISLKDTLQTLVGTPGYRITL
CSC inhib = blocks cancer stem cells; inhibition, % at 7.5 µM; AID 2717; hit rate 1.1% among 300,000; cancer stem cell-like cells viability, luminescence;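 active = mean at 75% or more and at least half the replicates too; tested in HMLE shEcad cells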;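 note: 0% = median of negative and 100% = median of positive control wells; the first replicate is given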
MT1-MMP act inh = MT1-MMP (human) activation inhibition | HT1080 RFP-PRO-GFP cells, GFP/RFP ratio fluorescence, overnight; percent of plate control window, DMSO zero | hit rate 0.061% among 360,000 | GFP/RFP ratio change, % at 20 µM | P50281;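 active = GFP/RFP ratio change of at least 30% with cell ATP level not reduced by more than half and red fluorescence within 50% of control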; note: strong numbers were not always called active
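Assay system: HT1080 RFP-PRO-GFP cells. Benchmarks: DMSO vehicle wells and RFP-L50D-GFP reporter cell wells. Times: overnight cell settling, then overnight compound exposure, 37 °C, 5% CO2. Compound: 20 µM single dose, 1% DMSO. Read-out basis: GFP/RFP fluorescence ratio.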
PABP FP inh = blocks human PABP binding to poly(A) RNA | inhibition, % at 35 µM | hit rate 1% among 290,000 | fluorescence polarization | P11940;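 active = 50% or more with normal probe brightness, or confirmed in later tests; about a fifth of its hits are not listed in these tables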;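 note: calls also rest on retests at 20 µM and on dose response follow-up; controls were probe without protein and protein plus probe with vehicle; some compounds called inactive have numbers as strong as hits; many hits fall short of the cut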
UUG fidelity = yeast start codon fidelity modulation | activity score, % at 18.7 µM | hit rate 0.13% among 350,000 | S. cerevisiae UUG-firefly luciferase reporter, luminescence/redox ratio;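 active = replicate mean at a twofold rise or more, about +100% in these data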;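 note: firefly luciferase made from a UUG start codon reports start codon fidelity; reporter light over untreated wells divided by growth signal over untreated wells; some hits fall short of that in this replicate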
eIF4H inh retest = also measured in eIF4H inh; calls as there; inhibition, %; compound at 20 µM; confirmation average;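 mean of two retest wells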
PABP FP inh retest = second read-out of PABP FP inh, no call of its own (marks repeat the call); inhibition, %; compound at 20 µM; confirmation repeats;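 mean of two retest wells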
MT1-MMP act inh RFP = also measured in MT1-MMP act inh; calls as there; RFP signal change, %; measured here: RFP expression control read;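 0 = vehicle wells; hits needed this value within 50% of zero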
The depositor's hits bear a star; i = inactive; / = not tested or not shown; & = joins results of further samples. Not all compounds are listed; rates above refer to the full screens.

SMILES | HIV Env fusion | eIF4H inh | Rce1 inh | CSC inhib | MT1-MMP act inh | MT1-MMP act inh RFP | PABP FP inh | UUG fidelity | others
O=C(COc1ccc(Cl)cc1)Nc1cccc(-c2ccc3nncn3n2)c1 | 15 | 1 | i | 12 | -1 | -2 | 101 | / | eIF4H inh retest=0;PABP FP inh retest=-4
CC(=O)Cc1nsc(NC(=O)c2ccc(-c3ccc(F)cc3)o2)n1 | 25 | -14 | i | -10 | -2 | -9 | -14 | -3
C/C(=N\Nc1nc(C(=O)O)cs1)c1ccccc1 | 6 | 4 | / | -4 | / | / | 3 | /
COc1ccc(N2CCN(c3nc(-c4cccs4)nc4ccccc34)CC2)cc1 | -31 | 0 | i | 25 | 1 | -4 | -4 | /
CN(C)c1ccc(NC(=O)C2C3C=CC(C3)C2C(=O)O)cc1 (stereo not given) | -63 | 28 | i | 11 | 16 | 9 | 5 | -8
Cc1oc(-c2ccc(Cl)cc2)nc1CS(=O)CC(=O)NC(C)c1ccccc1 (stereo not given) | 3 | -5 | i | -17 | 1 | 3 | 9 | -9
CC(CCc1ccccc1)NC(=O)COC(=O)c1cccc(N(C)C)c1 (stereo not given) | 2 | 11 | i | -5 | 1 | 3 | -4 | -4
CCNC(=O)/C(=C\c1ccc2c(c1)OCO2)NC(=O)c1ccc(Br)cc1 | -58 | -8 | i | -3 | 0 | -2 | -4 | -12
O=C(c1cccc(S(=O)(=O)N2CCN(c3ccc(F)cc3)CC2)c1)N1CCN(c2ccccc2O)CC1 | 12 | / | / | / | -6 | -20 | / | -6
Cn1c(NCc2c(O)ccc3ccccc23)nc2ccccc21 | 71* | 9 | i | 2 | -5 | -8 | -6 | /
COC(=O)C1=C(C)N(c2ccc(OC)cc2)C(C)=C(C(=O)OC)C1c1ccccc1 | 25 | 2 | i | 23 | -5 | -8 | 4 | /
COc1ccc(/C=N/N=C2\CC3CCC2(C)C3(C)C)cc1O (stereo not given) | / | -2 | / | -4 | -2 | -1 | 1 | -1
Cc1ccc(C(=O)CSc2nnc(-c3ccccc3N)n2C)cc1 | / | -3 | i | 4 | 12 | 3 | 4 | -2
Oc1c(Br)cc(Br)cc1CNc1ccccn1 | 2 | 14 | i | 12 | 0 | 0 | 16 | -3
N/C(=N\OC(=O)c1cccs1)C1(c2ccc(Cl)cc2Cl)CC1 | 0 | -5 | / | -11 | 4 | 0 | 4 | -6
Cc1cccc(-c2nnc(SCC(=O)Nc3nc4c(s3)CCCC4)n2C)c1 | / | -3 | i | 7 | -3 | -5 | -4 | -11
OCCC1CN(Cc2cccn2-c2nccs2)CCN1CCc1ccccc1 (stereo not given) | 2 | 7 | i | 36 | -2 | 0 | -1 | 6
COc1ccc(CNC(=O)c2cc(C)nc3ccccc23)cc1OC | -2 | 0 | i | 0 | -1 | 0 | -9 | /
COc1ccc(-c2nc(CS(=O)(=O)CC(=O)NCCCc3ccccc3)c(C)o2)cc1 | 1 | 4 | i | 1 | 2 | -4 | 1 | -19
O=C(O)c1cccnc1SC1CC(=O)N(Cc2ccccc2)C1=O (stereo not given) | -3 | 1 | i | -1 | -4 | 1 | 6 | -18
O=C1CC(c2ccccc2)c2cccc(F)c21 (stereo not given) | 0 | -2 | i | -8 | -1 | 0 | -3 | -2
Cn1c(=O)n(C)c2cc(NS(=O)(=O)c3ccccc3[N+](=O)[O-])ccc21 | 10 | -14 | i | 1 | 7 | 1 | 0 | -16
CC(=O)c1ccc(NC(=O)CN2CCN(c3ccccc3)CC2)cc1 | -52 | -6 | i | 0 | 1 | -2 | -3 | -10
CCSC1=NCCN1C(=O)c1ccc(S(=O)(=O)N(C)C)cc1 | 0 | 0 | i | 5 | -1 | -2 | 42 | /
Cc1ccc(NC(=O)NNS(=O)(=O)c2ccc(Br)cc2)cc1 | / | -11 | i | 10 | 2 | 2 | -10 | -13
SMILES | HIV Env fusion | eIF4H inh | Rce1 inh | CSC inhib | MT1-MMP act inh | MT1-MMP act inh RFP | PABP FP inh | UUG fidelity | others
COCCCN=C1NN=C(c2cc(C)n(Cc3ccco3)c2C)CS1 | -92 | 16 | i | 0 | 3 | -7 | 11 | /
COc1ccc(Br)cc1CN(C)CC(=O)Nc1cccc(S(=O)(=O)N2CCCC2)c1 | 26 | / | / | 36 | 2 | -8 | / | 0
COC(=O)[C@@H](NC(=O)c1ccccc1)[C@@H](C)O | 16 | -9 | i | 2 | 0 | 1 | -4 | -4
O=C(CSc1nccc(=O)[nH]1)NC1CCCc2ccccc21 (stereo not given) | -3 | -3 | i | -10 | -3 | -2 | 0 | /
CN(Cc1ccc(F)cc1)C(=O)c1cc(COc2ccc(F)cc2F)on1 | -18 | -4 | i | 2 | -1 | -1 | -4 | 1
O=C(CN(C(=O)CCC(=O)Nc1nccs1)c1cccc(F)c1)NCc1ccc2c(c1)OCO2 | 7 | 5 | i | 4 | -1 | -3 | 12 | -5
COc1cnn(-c2cc(Oc3ccc(C)cc3)ncn2)c(=O)c1Cl | / | -6 | i | -7 | 7 | 5 | -6 | -8
CC1(c2ccc(C#N)cc2)NC(=O)N(CC(=O)Nc2cc(S(=O)(=O)N3CCOCC3)ccc2Cl)C1=O (stereo not given) | 21 | -7 | i | 4 | 2 | 0 | -4 | /
CC1=CC(C)(C)N(C(=O)CSc2ncn[nH]2)c2ccccc21 | -31 | 13 | i | -3 | 0 | 3 | -4 | -25
CCSC1=N/C(=C\c2cccnc2)C(=O)N1c1ccccc1 | 8 | -10 | i | -7 | 0 | 1 | -7 | /
O=C(CSc1nnc(-c2ccccc2F)n1C1CC1)NCc1ccco1 | -4 | / | / | -14 | -2 | 4 | / | /
CC(=O)N(Cc1c(C#N)c2ccccc2n1C)c1ccccc1 | / | 7 | i | 2 | -1 | 4 | 3 | -2
CCCn1c(SCC(=O)NCc2ccc3c(c2)OCO3)n[nH]c1=O | -2 | / | / | / | -2 | 1 | / | -10
O=[N+]([O-])c1cc(Cl)cc(C2=NCCN2)c1 | -10 | 7 | i | -8 | 1 | 5 | -5 | -17
O=C(N/N=C/C=C\c1ccccc1[N+](=O)[O-])c1cccs1 | -8 | 2 | i | -2 | 1 | -2 | -7 | /
Cc1ccn(C(=O)c2cc3c(C)nn(-c4ccccc4)c3s2)n1 | / | -3 | i | -1 | -3 | -2 | 3 | -15
Cc1ccc(OCC(=O)Nc2ccc(S(=O)(=O)N(C)C3CCN(C)CC3)cc2)c(C)c1 | -9 | -2 | i | 48 | -3 | -2 | 72* | -17 | eIF4H inh retest=-3;PABP FP inh retest=85*
COc1ccc(OC(=O)N(C)C[C@@H]2OCc3cn(nn3)CCCC(=O)N([C@H](C)CO)C[C@H]2C)cc1 | -332 | / | / | / | -1 | 5 | / | -2&-4
COC1=C(N)C(=O)c2nc(-c3nc(C(=O)O)c(C)c(-c4ccc(OC)c(OC)c4O)c3N)ccc2C1=O | / | 16 | / | / | / | / | -9 | 1
Cc1ccc2c(c1)N(CC(=O)NCCCN1CCCCC1)C(=O)CO2 | 0 | -8 | i | -7 | 4 | 8 | -2 | -24
CCCOC(=O)c1cc(=O)[nH]c2ccccc12 | / | 6 | i | -5 | 7 | 5 | 3 | -12
Cc1ccc(NS(=O)(=O)c2c(C)[nH]c(C)c2C(=O)N2CCCC2)cc1Cl | 0 | 9 | i | -10 | / | / | 2 | 15
COc1cc(NC(=O)c2nccn2C)cc(C(=O)Nc2cccc(C(F)(F)F)c2)c1 | -16 | -9 | i | 34 | 0&-1 | 0&1 | -5 | 2&-25
CC(c1ccccc1)N1CC(C(=O)N2CCN(c3ccccc3)CC2)CC1=O (stereo not given) | 10 | -6 | i | 3 | -1 | 1 | -8 | -4
O=S(=O)(c1ccc2c(c1)OCCO2)N1CCN(S(=O)(=O)c2c(F)cc(F)cc2F)CC1 | -3 | / | / | -14 | 3 | 5 | / | -4
SMILES | HIV Env fusion | eIF4H inh | Rce1 inh | CSC inhib | MT1-MMP act inh | MT1-MMP act inh RFP | PABP FP inh | UUG fidelity | others
C=CCOc1ccc(C2C(C#N)=C(N)N(N(C)C)C3=C2C(=O)CCC3)cc1 (stereo not given) | 15 | 3 | i | -8 | -4 | -2 | 1 | -9
COc1ccccc1NC(=O)c1ccc(-c2ccccc2[N+](=O)[O-])o1 | -21 | 1 | i | 51 | 0 | -4 | -4 | /
CC(C)CCN1C(=O)c2ccccc2C1C(=O)NCc1cccnc1 (stereo not given) | -17 | 4 | i | 16 | 2 | 2 | -1 | -5
O=c1[nH]c(C2CCN(S(=O)(=O)c3ccccc3C(F)(F)F)CC2)nc2c1nnn2Cc1ccccc1 | 8 | 23 | i | 1 | -2 | -6 | 14 | 7
CC(OC(=O)C1=COCCO1)C(=O)NC1CCCCC1C (stereo not given) | / | / | / | 12 | -1 | 4 | / | -19
O=C(NCC(=O)N1CCN(c2ccccc2O)CC1)c1ccc2ccccc2c1 | 18 | 6 | i | / | 0 | 1 | -13 | -21
O=C(NC(=S)Nc1cccc(O)c1)c1cncc(Br)c1 | -3 | / | i | -2 | -1 | -7 | / | /
CCOC(=O)C(=O)NNc1ccccc1C | 17 | 3 | i | 14 | 1 | 9 | -5 | -14
COC(=O)C1=C(C)N(c2ccccc2)/C(=C/c2cccs2)C1=O | / | -8 | i | 10 | -4 | -5 | -1 | -5
COc1ccc(CSc2nc(C)[nH]c2[N+](=O)[O-])cc1[N+](=O)[O-] | -1 | -10 | i | -1 | 14 | 0 | -6 | -8
COc1ccccc1C(=O)Nc1nnc(SCC(=O)NCc2ccco2)s1 | / | -1 | i | 1 | 0 | -2 | -6 | -23
Cc1cc(C(=O)NNC(=O)c2sccc2C)c(C)o1 | / | / | i | -13 | 7 | 9 | / | 0
COc1cc(C(=O)OCC(=O)Nc2cc(S(=O)(=O)N3CCOCC3)ccc2C)ccc1OCC(C)C | -7 | / | i | -13 | 3 | -3 | / | /

Compounds from the list above that contain a CF3 group (2):
SMILES | HIV Env fusion | eIF4H inh | Rce1 inh | CSC inhib | MT1-MMP act inh | MT1-MMP act inh RFP | PABP FP inh | UUG fidelity | others
COc1cc(NC(=O)c2nccn2C)cc(C(=O)Nc2cccc(C(F)(F)F)c2)c1 | -16 | -9 | i | 34 | 0&-1 | 0&1 | -5 | 2&-25
O=c1[nH]c(C2CCN(S(=O)(=O)c3ccccc3C(F)(F)F)CC2)nc2c1nnn2Cc1ccccc1 | 8 | 23 | i | 1 | -2 | -6 | 14 | 7

Grouped by structure: those above with an aryl thioether with sulfur outside any ring (nine)
SMILES | HIV Env fusion | eIF4H inh | Rce1 inh | CSC inhib | MT1-MMP act inh | MT1-MMP act inh RFP | PABP FP inh | UUG fidelity | others
Cc1ccc(C(=O)CSc2nnc(-c3ccccc3N)n2C)cc1 | / | -3 | i | 4 | 12 | 3 | 4 | -2
Cc1cccc(-c2nnc(SCC(=O)Nc3nc4c(s3)CCCC4)n2C)c1 | / | -3 | i | 7 | -3 | -5 | -4 | -11
O=C(O)c1cccnc1SC1CC(=O)N(Cc2ccccc2)C1=O (stereo not given) | -3 | 1 | i | -1 | -4 | 1 | 6 | -18
O=C(CSc1nccc(=O)[nH]1)NC1CCCc2ccccc21 (stereo not given) | -3 | -3 | i | -10 | -3 | -2 | 0 | /
CC1=CC(C)(C)N(C(=O)CSc2ncn[nH]2)c2ccccc21 | -31 | 13 | i | -3 | 0 | 3 | -4 | -25
O=C(CSc1nnc(-c2ccccc2F)n1C1CC1)NCc1ccco1 | -4 | / | / | -14 | -2 | 4 | / | /
CCCn1c(SCC(=O)NCc2ccc3c(c2)OCO3)n[nH]c1=O | -2 | / | / | / | -2 | 1 | / | -10
COc1ccc(CSc2nc(C)[nH]c2[N+](=O)[O-])cc1[N+](=O)[O-] | -1 | -10 | i | -1 | 14 | 0 | -6 | -8
COc1ccccc1C(=O)Nc1nnc(SCC(=O)NCc2ccco2)s1 | / | -1 | i | 1 | 0 | -2 | -6 | -23

Screening data: PubChem BioAssay, several laboratories
